D2 ag: human D2 receptor agonism in beta-arrestin assay. 360,000 compounds, 0.084% hits. AID 624465. activation, % (test concentration not listed). DiscoveRx PathHunter D2 beta-arrestin, luminescence, 90 min; 100% = 57 uM dopamine signal. P14416; in the data active = activation above about 40%; inconclusive = about 15% to 40%; inactive = below about 15%; note: compound concentration not given in the record; the text of the record calls up to 30% inactive
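DiscoveRx PathHunter D2 beta-arrestin cells (2,100/well) attached overnight, then compound-stimulated 90 min at 37 C in HBSS/10 mM HEPES/0.1% Tween-20 buffer; beta-galactosidase complementation read by luminescence after 1 h at ambient temperature. Dopamine 57 uM final (EC100) as control.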
Six1-Eya2 blk: inhibitors of human Six1/Eya2 interaction | 360,000 compounds, 0.56% hits | AlphaScreen GST-Six1/His-Eya2 binding, biochemical; hits give low values; control for the full effect not named in the record | activity change, % (test concentration not listed) | Q15475+O00167; in the data active = activity change below about -65%; inconclusive = about -30% to -65%; inactive = above about -30%; note: % is set by controls: 0 for no effect and ±100 for the full control effect
Target sequence (O00167 whole entry, looked up): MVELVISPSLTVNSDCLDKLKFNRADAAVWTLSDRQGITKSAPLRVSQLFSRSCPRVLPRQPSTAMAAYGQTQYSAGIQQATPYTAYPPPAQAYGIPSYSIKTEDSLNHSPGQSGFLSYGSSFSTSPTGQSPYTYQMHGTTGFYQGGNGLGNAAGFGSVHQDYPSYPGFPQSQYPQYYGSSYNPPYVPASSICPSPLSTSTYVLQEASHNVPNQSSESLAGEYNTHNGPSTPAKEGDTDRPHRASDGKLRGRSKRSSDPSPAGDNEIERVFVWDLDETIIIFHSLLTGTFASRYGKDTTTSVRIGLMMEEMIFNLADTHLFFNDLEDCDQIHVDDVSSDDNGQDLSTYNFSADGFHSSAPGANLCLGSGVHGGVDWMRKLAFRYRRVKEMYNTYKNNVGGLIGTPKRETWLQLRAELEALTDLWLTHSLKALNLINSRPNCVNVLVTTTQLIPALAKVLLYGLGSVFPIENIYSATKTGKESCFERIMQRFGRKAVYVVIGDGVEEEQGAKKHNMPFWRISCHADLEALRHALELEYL
Target sequence (Q15475 whole entry, looked up): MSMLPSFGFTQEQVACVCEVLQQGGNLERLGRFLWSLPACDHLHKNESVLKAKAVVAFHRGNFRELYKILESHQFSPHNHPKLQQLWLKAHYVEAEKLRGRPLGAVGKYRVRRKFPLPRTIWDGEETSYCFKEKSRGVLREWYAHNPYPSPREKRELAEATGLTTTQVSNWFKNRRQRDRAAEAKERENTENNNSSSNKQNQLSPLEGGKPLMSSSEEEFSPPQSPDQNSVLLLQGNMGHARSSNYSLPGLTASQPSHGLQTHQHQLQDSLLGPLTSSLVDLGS
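Homogeneous AlphaScreen proximity assay pairing GST-Six1 with His-tagged Eya2 (added as 5X mix: 250 nM and 500 nM) in 50 mM Tris pH 8.0, 300 mM NaCl, 1 mM TCEP. Glutathione donor and nickel acceptor beads; 1 h, 37 °C, dark.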
D2 PAM: positive allosteric modulators of human D2 dopamine receptor; P14416; DiscoveRx D2 beta-arrestin cells, luminescence, 90 min; 100% = 57 uM dopamine signal; potentiation, % (test concentration not listed); 360,000 compounds, 0.23% hits; active = potentiation of 50% or more; inconclusive = 30% to 50%; inactive = 30% or less;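 note: compound concentration not given in the record; tested on top of an EC20 dose of dopamine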
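D2 cells co-treated with compound plus 50 nM dopamine (EC20) for 90 min at 37 deg C to detect potentiation. Beta-arrestin recruitment was read as enzyme-fragment luminescence after 1 h at ambient temperature. Full response was set by 57 uM dopamine.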
TRPML1 blocker: inhibitors of human TRPML1 channel; Q9GZU1; TRPML1-inducible cells, Ca2+ dye fluorescence, FDSS; hits give low values; inhibition of EC80 agonist-evoked calcium signal; activity change, negative = inhibition, % (test concentration not listed); 390,000 compounds, 0.02% hits; AID 624415; in the data active means activity change below about -50%; inconclusive means about -30% to -50%; inactive means above about -30%;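 note: stimulus is agonist 54-4 at its EC80 concentration; % is set by controls: 0 for no effect and ±100 for the full control effect; compound concentration not given in the record; the text of the record puts the active cut at -80%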
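TRPML1-DL cells, Tet-induced overnight (~16 h, 37 °C) at 1,500 cells/well, were loaded with Ca8 no-wash dye plus quencher for 45-90 min at room temperature. Compounds were pinned during FDSS kinetic reading; agonist 54-4 at EC80 (4 uM final) then added.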
TRPML1 ag: agonists of human TRPML1 channel; TRPML1-expressing cells, Ca2+ dye fluorescence, FDSS; host cell line not named in the record; reference of the full effect not given here; activation, % (no concentration beside the values); 410,000 compounds, 0.12% hits; AID 624414; in the data active = activation above about 50%; inconclusive = about 30% to 50%; inactive = below about 30%; note: 0% is about no effect; the text of the record puts the active cut at 80%
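In this qHTS format, compounds were pin-transferred onto Ca8-dye-loaded TRPML1-DL cells induced with Tet overnight, and intracellular Ca2+ fluorescence was recorded kinetically for 110 s after a 10 s baseline. A subsequent 4uM final 54-4 (EC80) addition followed by a second 110 s read served as the antagonist phase.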
PINK1 modulator: PINK1 expression modulation | 410,000 compounds, 0.2% hits | PINK1 immunofluorescence, high-content cytometry, 24 h | AID 624263 | Potency, µM (highest dose often 76.6 µM), inactives show at the top dose activation (PINK1 increase), usual class: activators; active = well fitted activation curve with a large enough effect; inconclusive = small, poorly fitted or top-dose-only effect; inactive = flat fitted curve, though single readings scatter; cell line not stated here;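 note: potency is the fitted concentration of half-maximal effect; % of control where 0% means no effect; nearly all actives have a fitted effect of over 65% in size; a mitochondrial uncoupler was the plate control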
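Decision-based qHTS: stable cells, 24 h exposure to five compound concentrations, CCCP as control. Fixed cells stained for PINK1 plus nuclear, mitochondrial and cell markers, cytometer read.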
* hit, by the source's call; ? = inconclusive; . = no result given; & = joins results of further samples; [ ] = remark or other dose.

SMILES | D2 ag | Six1-Eya2 blk | D2 PAM | TRPML1 blocker | TRPML1 ag | PINK1 modulator
O=C(O)/C=C/C(=O)Nc1ccc(OC(F)(F)F)cc1 | 2.1 | 9 | -3 | ? | 0.3 | 0.2%
Cc1nonc1NC(=O)CSc1cn[nH]n1 | -5.7 | 12 | -3 | -9 | 0.7 | 1.2%
CCOC(=O)CN1C(=O)N[C@@H](c2ccccc2)[C@H](C(C)=O)[C@H]1C | -1.1 | 0 | -8 | -10 | -0.1 | 0.5%
CC(=O)NCCOC(=O)c1nn(Cc2ccccc2)c(=O)c2ccccc12 | 4.3 | 0 | -5 | 3 | 2.0 | 1.2%
CC(=O)N1CCCc2cc(S(=O)(=O)N3CCN(c4ccccn4)CC3)ccc21 | 0.5 | 2 | -9 | 3 | 0.0 | -0.1%
CC(OC(=O)c1cccc(S(=O)(=O)N(C)C)c1)C(=O)NCC(=O)Nc1ccc(F)c(F)c1F (stereo not given) | 2.6 | 9 | -14 | -3 | 0.1 | -1.6%
CCN1CCN(C(=O)c2ccc(CS(=O)Cc3ccc(C)cc3)o2)CC1 (stereo not given) | -3.1 | 3 | -28 | 18 | -0.3 | 0.0%
CC(=O)NC(c1ccccc1)c1nc(/C=C/c2ccccc2)cs1 (stereo not given) | -1.6 | -3 | 3 | . | -0.2 | 0.0%
O=C(NCc1cccc(Cl)c1)c1ccc(-c2csnn2)cc1 | -3.0 | 2 | -5 | 5 | 0.2 | 5.8%
Cc1ccc(CNC(=O)CCCn2c(=O)[nH]c3ccccc3c2=O)cc1 | -0.4 | 4 | 0 | -3 | -0.3 | 3.8%
CCCCNC(=O)CCn1c(=O)c2ccccc2n(Cc2ccc(F)cc2)c1=O | 1.1 | -18 | -13 | 5 | -1.2 | -1.6%
NC(=O)c1cc[n+](CC2=C(C(=O)O)N3C(=O)[C@@H](NC(=O)C(c4ccccc4)S(=O)(=O)[O-])[C@H]3SC2)cc1 (stereo not given in full) | -4.7 | ? | -9 | 2 | -0.5 | 1.7%
C/C(CC(=O)Nc1ccc2c(c1)OCCO2)=N\NC(=O)Cc1ccc(Cl)cc1 | -5.2 | 2 | -2 | 8 | -1.6 | 3.1%
O=C(CSc1nnc(-c2ccncc2)n1Cc1ccccc1)NC1CCCc2ccccc21 (stereo not given) | -2.3 | -27 | -11 | 31 | -0.6 | -2.5%
O=C(Cn1c(=O)n(CCCS(=O)(=O)C2CCCCC2)c(=O)c2ccccc21)Nc1ccc(F)c(Cl)c1 | . | . | . | -17 | 0.3 | 2.5%
CCOC(=O)CNC(=O)CSc1nc2nc(C)c(Br)cc2[nH]1 | -1.7 | 12 | -7 | 0 | -0.9 | 1.4%
O=C(CCCN1C(=O)/C(=C/c2ccccc2Cl)SC1=S)N1CCCC1 | 1.6 | ? | -4 | 4 | 2.1 | -0.3%
Cc1c(OC(=O)c2ccc([N+](=O)[O-])cc2)c2c(c[n+]1C)COC(C)(C)OC2 | -0.6 | 4 | -4 | -3 | 1.5 | 1.0%
Cc1ccc(S(=O)(=O)N(C)CC(=O)Nc2ccccc2)cc1 | -1.2 | -6 | -1 | -5 | 1.3 | -0.6%
CCOC(=O)N1CCN(C(=O)c2cn(CCOC)c(=O)c3c2c2ccccc2n3C)CC1 | 2.4 | -1 | 0 | 14 | 0.1 | 18%[38.3 µM]
CCc1nc2ccc(C(=O)NCCN(C)C)cn2c1N(CC)CCOC | 3.5 | 13 | -6 | . | -0.3 | -1.2%
CCN(c1cc(C)cc(C)c1)S(=O)(=O)c1nnc(NC(=O)c2ccco2)s1 | -0.9 | -4 | -12 | 35&2 | 0.8&1.3 | 0.4%&2.3%
CC(Oc1cc2oc(=O)c3c(c2cc1Cl)CCCC3)C(=O)NCCN1CCOCC1 (stereo not given) | -4.9 | -1 | -18 | 10 | -0.8 | -0.5%
Cc1ccc(C)c(Cn2c3ccccc3c3cnn(CC(=O)NCc4ccccc4)c(=O)c32)c1 | . | . | . | -6 | 0.8 | 2.9%
CCOC(=O)c1c(NC(=O)CSc2ccccc2C(=O)O)sc(C)c1C | 2.4 | -20 | 5 | 2 | 0.3 | 0.1%
O=C(CSC(=S)N1CCCC1)NCCc1ccccc1 | 7.0 | 2 | -20 | -15 | 1.7 | -0.2%
O=C(/C=C/c1ccc(Cl)c(Cl)c1)N1CCc2ccccc21 | -0.7 | 1 | -15 | -6 | -0.6 | 2.4%
Cc1cc(Br)ccc1SCC(=O)OCC(=O)NC1CC1 | 3.3 | 8 | 2 | -7 | -1.1 | 0.9%
CCOC(=O)c1cc(NC(=O)c2cccs2)ccc1N1CCOCC1 | 0.7 | -19 | 5 | -5 | -0.6 | -0.5%
CCOc1cc(-c2nc3n(c(=O)c2C#N)CCS3)ccc1O | -4.3 | -3 | -8 | 5 | 1.8 | 8.4%
Cc1ccc(-n2c(SCC(=O)Nc3ccc4c5c(cccc35)CC4)nc(O)cc2=O)cc1 | -1.5 | -2 | 0 | 0 | 2.0 | -0.2%
CN1CCN(C(=O)c2cc3c(c(-c4cccc(-c5cc6ccccc6o5)c4)n2)[C@H](CCO)N(S(=O)C(C)(C)C)C3)CC1 (stereo not given in full) | 12 | -7 | -2 | . | -0.5 | 0.1%
COC(=O)c1ccc(C2Nc3c(C)cccc3-c3cc(C)nn32)cc1 (stereo not given) | . | . | . | 30 | 0.0 | 2.1%
COC(=O)c1ccc2c(c1)N(CC(=O)Nc1ccc(C)cc1Cl)C(=O)c1ccccc1S2 | . | . | . | 33 | 2.3 | 0.4%
CCCCC(c1nc2ccccc2[nH]1)N(C(=O)c1ccccc1)c1ccccc1[N+](=O)[O-] (stereo not given) | -4.0 | 1 | -4 | . | -0.6 | 7.1%
COc1cccc(CN2CCN(C3CCOCC3)CC2CCO)c1 (stereo not given) | -2.8 | 1 | -3 | 0 | 0.2 | 2.0%
CC(C)Cn1nc(C(=O)Nc2cccc(C(=O)NC3CC3)c2)c2ccccc2c1=O | 5.4 | 6 | -2 | 20 | 3.7 | 2.5%
COc1ccc2nc(N3C(=O)CC(Cc4ccc(C)cc4)C3=O)sc2c1 (stereo not given) | 0.9 | 1 | -7 | -6 | 0.6 | 0.7%
CCN(CC(=O)NCc1ccc(Cl)cc1)C(=O)CSc1ccccc1 | -4.1 | -2 | -2 | 13 | -0.8 | 0.9%
Cc1nn2cc(-c3cccc(Cl)c3)cnc2c1Cl | 0.6 | 12 | 3 | 9 | 0.2 | 1.6%
Cc1ccc(S(=O)(=O)N2C[C@H]3C(=O)C[C@@H](c4ccccc4F)N(S(=O)(=O)c4ccc(C)cc4)[C@H]3C[C@H]2c2ccccc2)cc1 | -4.7 | 5 | -11 | . | 0.3 | -0.6%
Cc1ccc(Nc2ccc(N3CCN(C(=O)c4ccc([N+](=O)[O-])cc4)CC3)nn2)cc1 | . | . | . | ? | 1.7 | 0.2%
O=C(N/N=C/c1ccccn1)c1cc(-c2ccncc2)nc2ccccc12 | 1.2 | -72* | -5 | -10 | 0.4 | 7.0%
CN(C)c1ccc(/C=N/NC(=O)C[n+]2ccccc2)cc1 | -1.6 | -14 | -4 | 4 | 0.5 | 0.4%
CN(C(=O)CCN1C(=O)C2C3C=CC(C3)C2C1=O)c1ccccc1 (stereo not given) | -1.8 | 7 | 2 | -10 | 2.0 | -1.1%
CC1(C)C(=O)C2(CCCCC2)C(=O)OC1c1ccc(O)cc1 (stereo not given) | 1.1 | -3 | -6 | 38 | 0.1 | ?
CC(C)c1ccc2c(c1)C(=O)NC(C)(C)C2 | 0.6 | -1 | 0 | -14 | 0.3 | 1.2%
CN(Cc1ccno1)C(=O)CC1C(=O)NCCN1CC(c1ccccc1)c1ccccc1 (stereo not given) | -1.8 | 1 | 2 | 19 | 0.4 | 0.1%

No new results follow: entries from further up.
SMILES | D2 ag | Six1-Eya2 blk | D2 PAM | TRPML1 blocker | TRPML1 ag | PINK1 modulator
CN(C(=O)CCN1C(=O)C2C3C=CC(C3)C2C1=O)c1ccccc1 (stereo not given) | -1.8 | 7 | 2 | -10 | 2.0 | -1.1%
CC1(C)C(=O)C2(CCCCC2)C(=O)OC1c1ccc(O)cc1 (stereo not given) | 1.1 | -3 | -6 | 38 | 0.1 | ?
CC(C)c1ccc2c(c1)C(=O)NC(C)(C)C2 | 0.6 | -1 | 0 | -14 | 0.3 | 1.2%
CN(Cc1ccno1)C(=O)CC1C(=O)NCCN1CC(c1ccccc1)c1ccccc1 (stereo not given) | -1.8 | 1 | 2 | 19 | 0.4 | 0.1%

(cont.)
SMILES | D2 ag | Six1-Eya2 blk | D2 PAM | TRPML1 blocker | TRPML1 ag | PINK1 modulator
CCCCC(=O)Nc1ccccc1C#N | -1.3 | 4 | -13 | -2 | -0.4 | -1.2%
O=C(NCC1CCCO1)Nc1ccc2c(c1)OCO2 (stereo not given) | -1.4 | -1 | 2 | -6 | 0.3 | 0.2%
CCn1c(/C=N/NC(=O)c2ccc(OC)cc2)nc2ccccc21 | 0.6 | -13 | -23 | 26 | 3.5 | -0.3%
O=C(Nc1ccc(OC(F)(F)F)cc1)N1CCc2nc(NCc3cccc(Oc4ccccc4)c3)ncc2C1 | 11 | -10 | 0 | . | 0.5 | ?
COc1cccc(CN2CCN(C(=O)c3oc4c(F)cccc4c3C)CC2=O)c1 | -8.0 | -1 | -2 | -4 | 1.2 | 2.0%
Cc1nn(-c2ccc(F)cc2)c2nc(N)c(C#N)c(-c3ccc(O)c(O)c3)c12 | 1.6 | ? | -10 | 3 | 1.3 | ?
CCc1nc(Nc2cccc(OC)c2)c2oc3ccccc3c2n1 | 5.2 | 0 | -4 | 22 | 1.1 | 8.3%
CC(C)C(=O)NCCc1nc2ccccc2n1CCOc1ccccc1 | -0.6 | -2 | -16 | -9 | -0.2 | 0.0%
COc1ccc(CNC(=O)C2CCN(S(=O)(=O)c3ccc(SC)cc3)CC2)cc1 | -1.7 | -2 | 2 | 29 | -0.5 | 1.6%
O=C1N=C(c2ccccc2)S/C1=C\c1cccs1 | -7.4 | -22 | -28 | 9 | -0.6 | -1.8%
Cc1cc2ccccc2n1CCNC(=O)C(C)Oc1ccccc1 (stereo not given) | -4.6 | -15 | -10 | 3 | 1.5 | 1.6%
Nc1cc(C(=O)N2CCN(c3cccc(Cl)c3)CC2)ccc1N1CC2CC(C1)c1cccc(=O)n1C2 (stereo not given) | -1.7 | -13 | -4 | 10 | -0.2 | 7.6%
CCCCC[C@@H]1CCCCC[C@@H](O)C[C@@H](O)[C@H](O)/C=C/C(=O)O1 | . | -4 | . | . | -0.7 | 2.2%
CC(C)NC(=O)CCc1nc2cccnc2n1-c1ccccc1 | 1.2 | 17 | -3 | -10 | 1.1 | 2.2%
COc1cccc(CNC(=O)CN(c2ccc(C(C)C)cc2)S(=O)(=O)c2c(C)n[nH]c2C)c1 | . | . | . | 6 | -1.2 | 0.6%

Screening data as filed in PubChem BioAssay.
